Bioassay records: PubChem BioAssay, several laboratories
PrP UTR inh: inhibition of PrP 5' UTR reporter expression; cell-based PrP 5' UTR mRNA reporter, plate reader; inhibition, % (test concentration not listed); 340,000 tested, 0.35% active; AID 488862, 2010;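 active = every replicate at 50% or more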;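 note: 0 = median of the neutral control wells; tested in H4 reporter cells; numbers are from one replicate; inactives centre near -14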
Mtb hypoxia rep: PubChem AID 1159583; M. tuberculosis hypoxia-regulated fluorescent reporter, fluorescence; fluorescence inhibition, % (concentration not given with the values); 300,000 tested, 0.1% active;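 active = 35 to 45% if threefold the growth effect, above 45% if 1.5-fold the growth effect; inactive = the rest, general growth blockers included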;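 note: wells of about 50 µL received 100 nL stock; 0% = vehicle wells and 100% = reference inhibitor wells; whole bacteria with a GFP reporter of the hypoxia response; strong numbers were not always called active; many hits fall short of the cut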
ugtP null kill: growth inhibition of ugtP-null S. aureus, primary screen, RN4220 ugtP deletion, OD600; 16 h; some inactives read as strong as hits; growth inhibition, % (test concentration not listed); 330,000 tested, 0.54% active;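 active = z-score under -3 and OD600 up to 0.15 on both plates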;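 note: plate controls were untreated wells for no effect and antibiotic for full effect; wells of about 80 µL received 100 nL stock; the first replicate is given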
Bead autofluor: compound fluorescence in toxin protease inhibitor counterscreen; fluorescence intensity (concentration not given with the values); 360,000 tested, 3.1% active; compound autofluorescence counterscreen, microsphere flow cytometry; stronger effect = higher value;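 active = at least 3 SD above the mean of all compounds, about 16000 in these data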;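 note: 100 nL of 1 mM stock went into each well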
Sa RN4220 lethal: growth inhibition of S. aureus RN4220, primary screen, OD600; 16 h; inhibition, % (no concentration beside the values); 330,000 tested, 0.33% active;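 active = z-score of -3 or lower and OD600 up to 0.18 on both plates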;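 note: plate controls were untreated cells for no effect and reference antibiotic for full effect; stock transfer was 100 nL into about 80 µL; one replicate is shown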
BJeLR lethal: MLPCN primary cell-based screen for lethality selective to Ras in HRASV12 cells. BJeLR (HRASV12) viability, CellTiter-Glo ATP luminescence, 48 h; reference of the scale not given here. 300,000 tested, 0.17% active. inhibition, % (no concentration beside the values). AID 1554, 2009;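 active = replicate mean above 50%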;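 note: 50 nL library stock added to about 25 µL; numbers are from one replicate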
Mtb hypoxia rep growth: also measured in Mtb hypoxia rep; calls as there; growth inhibition, %; measured here: M. tuberculosis growth (absorbance);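 0% = vehicle and 100% = reference antibiotic; read after six days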
Numbers without * were called inactive; / = not tested or not shown; & = joins results of further samples. Rows are unselected, and some 4% of all compounds hit somewhere here.

SMILES	PrP UTR inh	Mtb hypoxia rep	Mtb hypoxia rep growth	ugtP null kill	Bead autofluor	Sa RN4220 lethal	BJeLR lethal
O=C(NC(C(=O)NN=Cc1ccccc1)c1n[nH]c(=O)c2ccccc12)c1ccccc1 (centres undefined)	/	18	9	-7	/	-10	/
COc1ccc(S(=O)(=O)Nc2ccc(C)c(S(=O)(=O)N3CCOCC3)c2)cc1[N+](=O)[O-]	-12	0	3	1	4798	1.9	/
CCCN1CCN(S(=O)(=O)c2ccc3c(c2)NC(=O)C(C)C(=O)N3)CC1 (centres undefined)	-10	5	0	5	6392	7.0	-12
Cc1ccc(S(=O)(=O)N2C(=O)CCC2C(=O)Nn2cnnc2)cc1 (centres undefined)	/	7	13	4	11454	1.5	10
CC(C)NC(=O)NC(=O)CSc1nnc(-c2ccccc2F)n1N	-27	3	13	6	4325	3.9	0
CC[C@H]1OC(=O)[C@H](C)[C@@H](O[C@H]2C[C@@](C)(OC)[C@@H](O)[C@H](C)O2)[C@H](C)[C@@H](O[C@@H]2O[C@H](C)C[C@H](N(C)C)[C@H]2O)[C@](C)(OC)C[C@@H](C)C(=O)[C@H](C)[C@@H](O)[C@]1(C)O	-4	/	/	/	5885	/	3
COc1ccc(N2C(=O)C3C(c4ccc(OC)cc4O)NC(Cc4ccccc4)(C(=O)O)C3C2=O)cc1 (centres undefined)	-27	8	9	-1	4797	2.8	/
CC(Oc1ccccc1)C(=O)NC1CC(C)(C)NC(C)(C)C1 (centres undefined)	-4	-1	-6	4	3381	1.2	-1
COc1ccc(COc2cccc(C=O)c2)cc1	-40	4	11	-9	4132	-4.1	16
COc1ccc(C(=O)Nn2c(SCC(=O)N3CCC(C)CC3)nc3ccccc3c2=O)cc1	54	2	5	20	20975*	8.0	14
Cc1nc2cc(NC(=O)c3ccc([N+](=O)[O-])s3)ccc2s1	-12	8	11	18	5552	11	6
Cc1cccc(NC(=O)CSCC(=O)N(C)Cc2c(F)cccc2Cl)c1	5	-5	-5	-3	/	-2.8	-5
COc1ccc(S(=O)(=O)N(CC(=O)NCc2ccco2)c2ccccc2)cc1	-24	10	2	-9	19214*	3.9	0
Cc1ccc(C=NNC(=O)CSc2nc3ccccc3n2Cc2ccccc2)o1	/	-3	-2	2	/	1.5	/
COc1ccc(S(=O)(=O)NCc2ccccn2)c(Cl)c1Cl	-24	/	/	1	4951	2.7	7
O=C(CNC(=O)c1ccccc1)NC1(C(=O)NC2CCCCC2)CCCCC1	-14	7	5	5	4325	-0.8	-7
Cn1c(SCC(=O)Nc2ccc(N3CCOCC3)cc2)nnc1C(F)(F)F	-19	-3	2	-4	3639	-5.3	/
Cc1ccc(S(=O)(=O)Nc2cc(Cl)c(O)cc2C)cc1	-30	9	1	-3	15805	3.0	9
CS(=O)(=O)N(CC(=O)NCc1ccncc1)C1CCCCC1	-20	11	10	5	3302	1.5	4
O=C(CCC(=O)N1CCOCC1)NCCc1ccccc1	-56	8	8	5	3791	3.2	/
Nc1nnnn1N=C/C=C/c1ccccc1	/	11	20	7	/	0.3	/
CC(C)N1C(=S)SC(C)(C)C1n1oc(=O)n(-c2cccc(Cl)c2)c1=O (centres undefined)	-35	3	0	-3	3959	0.7	1
CCC(=O)Oc1ccc2c(c1)OC1(OC(C)=O)OC(C)CC1=C2C (centres undefined)	-19	5	-1	0	3359	3.6	-2
NC(=S)Cc1ccccc1Cl	-19	5	10	5	5250	2.5	-4
Cc1cc(O)c(NC(=O)c2cccc([N+](=O)[O-])c2)cc1C	-42	-8	6	-5	4583	1.3	8
COCCNC(=O)c1csc(Nc2cccc3ccccc23)n1	-11	-4	-10	-1	4070	6.4	-9
Cc1ccc(NC(=O)COC(=O)c2ccco2)cc1S(=O)(=O)N1CCOCC1	5	8	-3	-4	/	0.2	/
Cc1ccc(C(c2nnnn2C(C)(C)C)N2CCC(C)CC2)cc1 (centres undefined)	-18	17	5	1	20278*	9.5	-4
O=C(N/N=C/c1ccco1)c1cc(-c2cccc(Br)c2)nc2ccccc12	-27	/	/	/	9261	/	0
CCSc1nnc(-c2cccnc2)n1-c1ccc(Cl)c(C)c1	-17	16	9	6	17981*	6.6	-18
Cc1nc(NC(=O)c2c(-c3ccccc3Cl)noc2C)sc1C	-14	5	0	0	5964	2.0	-5
CCOC(=O)c1c(C)[nH]c2cc(Br)c(OC)cc12	-29	/	/	-25	2456	-3.6	3
Cc1nn(-c2ccccc2)c(Cl)c1C(=O)NNC(=O)c1ccccc1O	-2	10	-2	1	2889	8.3	/
Nc1nnn(CC(=O)N/N=C/c2ccccc2Cl)n1	-21	/	/	/	6277	/	2
CC1CCCCC12NC(=O)N(CC(=O)OCc1c(F)cccc1Cl)C2=O (centres undefined)	-28	17	9	2	3715	7.5	/
O=S(=O)(Nc1ccc(S(=O)(=O)N2CCCCCC2)cc1)c1cccs1	-17	4	2	12	8942	16	-2
O=C(C(Cc1ccc(O)cc1)n1cc(CCO)nn1)N1CCNCC1 (centres undefined)	/	0	-7	-4	/	0.0	/
COCCNC(=O)Cn1nc(C)c2ccccc2c1=O	-8	/	/	4	4425	3.4	5
CCN(CC)C(=O)c1sc2nc(-c3ccc(OC)cc3)cn2c1C	-83	11	9	1	/	3.9	-6
CC(=O)C1=C(C)N=c2sc(=Cc3ccc4c(c3)OCO4)c(=O)n2C1c1ccc(N(C)C)cc1 (centres undefined)	/	13	2	13	/	1.6	/
CC(C)(C)NC(=O)N1CCN(S(=O)(=O)c2ccc3c(c2)CCC3)CC1	-9	6	10	5	3984	-1.1	/
COc1ccc(CCNC(=O)CC2COc3ccccc3O2)cc1OC (centres undefined)	-29	13	10	-6	3881	5.0	-3
COCCCNC(=O)CSC1=Nc2ccccc2C2=NC(CC(=O)NCc3ccccc3)C(=O)N12 (centres undefined)	-3	8	3	6	6519	2.4	-6
Cc1oc2c(C)c3oc(=O)c(CC(=O)N[C@@H](CC(C)C)C(=O)N[C@@H](Cc4ccccc4)C(=O)O)c(C)c3cc2c1C	-4	/	/	-5	5835	4.2	0
Cc1cccc(N2C(=O)c3cccc4c(N5CCCCC5)c([N+](=O)[O-])cc(c34)C2=O)c1C	-20	/	/	/	2213	/	4
O=C(Nc1ccccc1N1CCCCC1)c1cc(S(=O)(=O)N2CCOCC2)ccc1Cl	-6	7	-6	5	/	0.3	0
COc1ccc(/C=C(\C#N)C(=O)OCC(=O)Nc2c(C)cccc2C)cc1	4	10	4	3	2502	4.3	-4
Cc1ccc2[nH]c(=O)c(CN(c3cccc(C)c3C)S(=O)(=O)c3ccccc3)cc2c1	-20	5	-4	0	5708	6.1	27
CCn1c(=O)[nH]c(=O)c2c(N)c(C(=O)c3cc(F)ccc3F)sc21	6	13	7	10	5646	6.1	9
COc1ccc(C(=O)c2ccccc2Cl)cc1OC	-18	-5	0	14	2051	5.3	-6
CC12CCC(C(=O)NNC(=O)c3ccc(F)cc3)(OC1=O)C2(C)C (centres undefined)	-23	9	1	-1	5504	1.8	-6
COC(=O)Cn1c(C)c(/C=C/c2cc[n+](C)cc2)c2ccccc21	-21	15	-4	3	4471	1.4	2
O=C(NC1CCCN(c2ccc(C(F)(F)F)cn2)C1)c1ccnc(Cl)c1 (centres undefined)	-5	3	-2	-1	4851	-1.4	7
CCC(C)(O)c1[nH]c2ccc(C(=O)OC)cc2c1C (centres undefined)	-9	18	2	6	3996	7.5	-10
Nc1nc(NCc2ccco2)nc(N2CCCC2)c1[N+](=O)[O-]	-23	14	2	-9	5591	8.0	12
Cc1ccc(S(=O)(=O)NCC(=O)N(CC2CCCO2)C(C(=O)NC2CCCCC2)C(C)C)cc1 (centres undefined)	-10	16	5	11	4872	-0.2	-4
CCCNC(=O)CCn1c(-c2ccc(C)cc2)cc(C(=O)OCC)c1C	-21	1	3	-2	4356	-0.2	-2
CCC(CO)NCc1sccc1C (centres undefined)	-30	7	4	4	4382	7.0	6
CCSc1nnc(-c2ccccc2NC(=O)CC)c(=O)[nH]1	-16	6	0	5	4320	0.6	5
Cc1cc(-c2ccc(S(=O)(=O)N(C)Cc3ccccc3)cc2)on1	1	0	4	-5	5326	1.9	0

Carrying on.
SMILES	PrP UTR inh	Mtb hypoxia rep	Mtb hypoxia rep growth	ugtP null kill	Bead autofluor	Sa RN4220 lethal	BJeLR lethal
COc1ccc(NC(=O)C(=O)NCC(=O)Nc2cccc(C(F)(F)F)c2)cc1	-37	-2	6	1	4316	3.1	16
Cc1ccc(S(=O)(=O)N2CCN(C(=O)c3ccc([N+](=O)[O-])cc3)C2)cc1	-27	2	5	5	2225	3.7	-15
Cc1cc2c(cc1C)N(C(=O)CSc1nncn1C)C(C)(C)c1ssc(=S)c1-2	-28	4	5	-7	9687	5.9	-4
CCNC(=O)C1OC(n2cnc3c(N)ncnc32)C(O)C1O (centres undefined)	-27	5&-8	-1&9	4&-1	3257	5.4&5.0	3
Cc1nc2ccccc2c2oc(C(=O)N3CC(C)CC(C)C3)cc12 (centres undefined)	-1	9	5	-5	5918	1.1	-1
Cc1cc(S(=O)(=O)N2CCc3ccccc3C2)ccc1F	-12	12	7	5	3887	2.1	-3
COc1cc(CC(NC(C)=O)C(=O)NC2CCN(C(=O)C3CC3)CC2)cc(OC)c1 (centres undefined)	1	1	6	3	4310	2.2	10
CC(C)[C@H]1CN=C2N(C[C@H](C)NC(=O)CCC3CCCCC3)[C@H](Cc3ccc(O)cc3)CN21	-12	/	/	/	3816	/	-1
CCOC(=O)c1sc(NC(=O)Cc2c(F)cccc2Cl)nc1C	-21	2	6	10	3163	11	9
CC(C)(C)OC(=O)CC1CC=CCC(CC(=O)N(CCO)Cc2ccccc2)C(=O)NC(Cc2ccccc2)COC1=O (centres undefined)	/	15&17&4&0&8&-1	9&7&4&2&-3&8	9&3&5&-11&-3&-14	/	4.9&-0.3&-0.9&3.5&0.2&1.3	/
CC1CC1C(=O)OCC(=O)NNC(=O)c1ccc([N+](=O)[O-])cc1 (centres undefined)	-12	0	-2	4	3843	2.4	/
O=C(NCc1ccccc1)N1CCC(n2cnc3cc(F)ccc32)CC1	-23	13	7	0	3603	-2.7	0
Cc1ccc(OCC(=O)N/N=C\c2ccco2)c(C)c1	-20	/	/	/	9658	/	4
COc1cc(NC(=O)N2c3ccccc3Sc3ccccc32)c(C(=O)O)cc1OC	-22	5	3	-1	3896	7.9	-7
CC(C)CC(=O)N1CCN(CC2CC=CCC2)CC1 (centres undefined)	-6	13	5	5	2464	7.7	4

By substructure: those above containing a thiophene ring, fused or not (four)
SMILES	PrP UTR inh	Mtb hypoxia rep	Mtb hypoxia rep growth	ugtP null kill	Bead autofluor	Sa RN4220 lethal	BJeLR lethal
Cc1nc2cc(NC(=O)c3ccc([N+](=O)[O-])s3)ccc2s1	-12	8	11	18	5552	11	6
O=S(=O)(Nc1ccc(S(=O)(=O)N2CCCCCC2)cc1)c1cccs1	-17	4	2	12	8942	16	-2
CCn1c(=O)[nH]c(=O)c2c(N)c(C(=O)c3cc(F)ccc3F)sc21	6	13	7	10	5646	6.1	9
CCC(CO)NCc1sccc1C (centres undefined)	-30	7	4	4	4382	7.0	6

An excerpt from above, reduced to Mtb hypoxia rep growth and BJeLR lethal:
SMILES | Mtb hypoxia rep growth | BJeLR lethal
COc1ccc(C(=O)Nn2c(SCC(=O)N3CCC(C)CC3)nc3ccccc3c2=O)cc1 | 5 | 14
COc1cc(CC(NC(C)=O)C(=O)NC2CCN(C(=O)C3CC3)CC2)cc(OC)c1 (centres undefined) | 6 | 10

Further results follow:
SMILES	PrP UTR inh	Mtb hypoxia rep	Mtb hypoxia rep growth	ugtP null kill	Bead autofluor	Sa RN4220 lethal	BJeLR lethal
CN(C(=O)CSc1nc(O)cc(=O)n1C1CCCC1)c1ccccc1	5	-8	6	3	4432	4.4	0
Cc1ccc(C(C)NC(=O)c2cccnc2)cc1 (centres undefined)	-15	/	/	9	5225	0.1	-6
CCOc1ccc(NC(=O)N2CCC(n3nnc4ccccc43)CC2)cc1	-17	2	5	0	2376	1.2	-1
COc1cccc2c1Oc1ncccc1N(C(=O)CCC(=O)NCc1ccccc1)C2	-2	12	3	4	4283	-0.1	-8
COC(=O)c1ccc(NC(=O)CSc2nncn2C)cc1	-5	7	2	5	3882	4.1	-2
Cc1nnc2c(-c3ccccc3)nc3ccccc3n12	4	/	/	-3	4459	1.8	-11
CCN(CC(=O)NCc1cccs1)C(=O)COc1cccc(C(F)(F)F)c1	-12	4	1	4	3614	-0.9	/
